Screening results as filed in PubChem BioAssay.
NPR1 antag: Natriuretic polypeptide receptor (hNpr1) antagonism - Primary qHTS; Atrial natriuretic peptide receptor 1 (Homo sapiens), P16066; HEK293 hNpr1 GloSensor cGMP, ANP-stimulated luminescence; Potency, µM (series often up to 46.3 µM), for the others: top-dose activity change, negative = inhibition, hits mostly inhibitors; 76,000 tested, 1.6% active; AID 1347048, 2019; active = well fitted inhibition curve with a large enough effect; inconclusive = small, poorly fitted or top-dose-only effect; inactive = no such curve, though single readings can be large or run the other way;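 also: nearly all actives have a fitted effect of over 60% in size; nearly all hits also lower the signal before the agonist is added; a reference antagonist and vehicle were the controls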
Target sequence (P16066 whole entry, looked up): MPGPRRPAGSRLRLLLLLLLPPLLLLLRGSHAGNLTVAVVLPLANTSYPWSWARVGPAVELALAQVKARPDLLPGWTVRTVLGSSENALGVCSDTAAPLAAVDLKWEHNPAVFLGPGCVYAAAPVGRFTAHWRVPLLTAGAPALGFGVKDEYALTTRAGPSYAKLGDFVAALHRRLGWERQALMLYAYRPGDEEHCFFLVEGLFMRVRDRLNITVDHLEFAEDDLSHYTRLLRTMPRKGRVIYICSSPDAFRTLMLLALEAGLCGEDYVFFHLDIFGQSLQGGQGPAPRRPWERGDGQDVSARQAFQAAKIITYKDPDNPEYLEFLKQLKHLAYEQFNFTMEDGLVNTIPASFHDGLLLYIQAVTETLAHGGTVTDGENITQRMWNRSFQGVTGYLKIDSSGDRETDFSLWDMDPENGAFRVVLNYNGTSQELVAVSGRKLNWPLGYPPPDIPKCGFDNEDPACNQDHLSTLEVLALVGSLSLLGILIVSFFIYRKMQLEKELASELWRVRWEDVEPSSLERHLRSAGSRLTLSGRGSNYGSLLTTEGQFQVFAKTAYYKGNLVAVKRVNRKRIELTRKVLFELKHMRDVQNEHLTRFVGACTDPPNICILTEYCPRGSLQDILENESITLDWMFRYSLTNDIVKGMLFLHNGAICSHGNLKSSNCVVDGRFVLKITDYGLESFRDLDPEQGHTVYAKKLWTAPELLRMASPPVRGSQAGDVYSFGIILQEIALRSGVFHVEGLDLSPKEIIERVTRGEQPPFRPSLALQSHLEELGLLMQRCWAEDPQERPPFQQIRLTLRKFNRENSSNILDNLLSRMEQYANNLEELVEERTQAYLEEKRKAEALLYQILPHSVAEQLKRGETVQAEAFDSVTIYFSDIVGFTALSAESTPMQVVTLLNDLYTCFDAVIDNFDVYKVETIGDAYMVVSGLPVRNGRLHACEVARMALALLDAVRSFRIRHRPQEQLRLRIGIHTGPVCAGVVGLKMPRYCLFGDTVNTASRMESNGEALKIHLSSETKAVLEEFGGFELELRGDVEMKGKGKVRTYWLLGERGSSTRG
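Compound pre-incubated 30 min at room temperature on GloSensor-loaded HEK293 cells stably carrying hNpr1 and the pGS-40F cGMP biosensor. Stimulation uses hNppA at 0.1 nM final; luminescence is taken at baseline and 20 min post-agonist.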
Numbers without * were called inactive; ? = inconclusive; [ ] = dose if it differs, or a comment. % is scaled to controls: 0 for no effect and ±100 for the full control effect; potency is read from the fitted curve at half-maximal effect. These rows are one share of the data. The share of hits here may be higher or lower than overall.

SMILES	NPR1 antag
O=C(COc1ccccc1)N1C[C@@H](CO)[C@H](c2ccccn2)C1	8.1%
O=S(=O)(c1ccc(F)c(F)c1)N1CCC(C2CCNC2)CC1 (configuration not stated)	-2.5%
CS(=O)(=O)CCNC(=O)C1CCCN(C2CCN(Cc3cccnc3)CC2)C1 (configuration not stated)	1.3%
COCCNC(=O)c1ccc(OC2CCN(CC3CCOC3)CC2)c(Cl)c1 (configuration not stated)	-0.6%
Cc1noc(C)c1CC(=O)N1CCCC(Cc2nc(C3CCOCC3)no2)C1 (configuration not stated)	-11.5%
COc1ccc(-c2noc([C@@H]3CCCN3C(=O)c3ccncc3)n2)cc1OC	9.8%
CC(=O)N1C[C@@H](C(=O)N2CCN(c3ccccn3)CC2)[C@H](c2nc(C)no2)C1	2.3%
Fc1ccc(C2Cn3nnc(-c4nc(-c5ccc6c(c5)OCO6)no4)c3CO2)cc1 (configuration not stated)	0.5%
CC(=O)Nc1cccc(OCc2nnc(C(=O)N3CCC[C@@H]3c3ccc(Br)cc3)n2Cc2ccccc2)c1	-29.5%
O=C(c1cnccn1)N1CCC2(CC1)CC(OCC1CC1)CCO2 (configuration not stated)	0.2%
COc1ccc(Cl)cc1C(=O)N1CCCN(c2cc(-c3ccc(Br)cc3)[nH]n2)CC1	?
CN1C(=O)CCC2(CNC(=O)c3cccnc3)CCC=C12 (configuration not stated)	6.6%
COCCN1CCCCCC(O)c2cc(C(=O)NCC3CC3)ccc21 (configuration not stated)	2.6%
Cc1ccc(S(=O)(=O)Nc2nc3c(s2)C[C@]2(C)CC[C@@H]4[C@H](OC(=O)[C@H]4C)[C@H]2[C@@H]3C)cc1	-2.0%
Cc1nc(-c2c3n(c(=O)n(CC(=O)Nc4ccc(Cl)cc4)c2=O)CCCC3)no1	6.1%
O=C(Nc1nccs1)[C@@H]1C[C@@H](c2ccc(F)cc2)N(CCOc2ccccc2)C1	?
CCNC(=O)c1ccc2c(c1)N(C(=O)c1ccc(F)cc1)CC2	3.9%
COCCNc1ncc(-c2ccncc2)c2c1OCC2	3.8%[70.6 µM]
CN1C[C@@H](NC(=O)Nc2ccc(C(F)(F)F)cc2)C[C@H]1c1nc(-c2ccc(Cl)cc2)no1	?
CCS(=O)(=O)NC1CCc2nnc(C3CC3)n2CC1 (configuration not stated)	-1.0%
O=C(C[C@@H]1CCNC[C@@H]1Cc1cc(COc2ccccc2)on1)N1CCN(c2ccc(F)cc2)CC1	-15.9%
CC(C)CN1C(=O)c2cccn2CC1C(=O)NCCCc1ccccc1 (configuration not stated)	0.2%
Cc1ccccc1Cn1cc(-c2ccncc2)cc1C(=O)NC1CC1	0.8%
COc1ccc(CC(=O)N[C@H]2[C@H](O)[C@H](O)C[C@@H]2c2ccc(OC)cc2)cc1	-0.1%[70.6 µM]
Cc1ccccc1C(=O)NC1CCN(c2cc(-c3ccccc3)[nH]n2)CC1	-1.7%
COc1cccc(CN2CC3(C2)NC(=O)c2ccccc2O3)c1	-17.9%[70.6 µM]
O=C(NCCc1ccccn1)c1cccnc1OC1CCNCC1	-4.4%
Cc1noc([C@H]2CCN(S(C)(=O)=O)C[C@H]2NC(=O)C2CC2)n1	1.4%
CC(C)c1nc2c(c(-c3ccc(O)cc3)n1)CN(Cc1ccsc1)CC2	-12.5%
COc1ccccc1CNC(=O)c1c(C)oc2ccn(Cc3cccc(F)c3)c(=O)c12	-18.6%
COc1ccc(C(=O)N2CCC(c3n[nH]c(=O)n3-c3ccccc3)CC2)cc1	-1.8%
COc1ccccc1Oc1ncccc1CNC(=O)Nc1cccc(C#N)c1	4.3%
CCCCC1C(=O)N(C)CCN1c1nc2c(s1)c(C)nn2C (configuration not stated)	0.0%
O=C(NCCC1CCN(C(=O)Nc2ccc(F)cc2)CC1)c1ccccc1F	0.5%
O=C(NCCOc1ccccc1)c1cc(COc2ccccc2)[nH]n1	0.0%
O=C(C1CC(=O)N(C2CCCC2)C1)N1CCN(c2ccc(Cl)cn2)CC1 (configuration not stated)	4.7%

Rewritten field by field: entries from further up.
> Cc1noc([C@H]2CCN(S(C)(=O)=O)C[C@H]2NC(=O)C2CC2)n1
  NPR1 antag = 1.4%
> COc1ccccc1Oc1ncccc1CNC(=O)Nc1cccc(C#N)c1
  NPR1 antag = 4.3%
> Cc1ccccc1C(=O)NC1CCN(c2cc(-c3ccccc3)[nH]n2)CC1
  NPR1 antag = -1.7%
> CC(C)c1nc2c(c(-c3ccc(O)cc3)n1)CN(Cc1ccsc1)CC2
  NPR1 antag = -12.5%

Carrying on:
SMILES	NPR1 antag
Cc1cc2cc(-c3c(C)noc3C)nc(Nc3ccn(C)n3)c2o1	-1.0%[70.6 µM]
Cn1nc(C(=O)N2C[C@@H](Oc3cccnc3)C[C@H]2C(=O)N2CCOCC2)c2ccccc21	5.2%
O=C(O)c1cccc(C2CCCN(C(=O)c3ccccc3-n3cccn3)C2)c1 (configuration not stated)	5.0%
O=C(c1ccccc1-c1ncc[nH]1)N1CC[C@@H](c2ccc3c(c2)OCO3)[C@H](O)C1	0.4%
CC[C@H]1CN(C(=O)Nc2cccc(C(F)(F)F)c2)CC[C@H]1CC(=O)N1CCOCC1	-0.9%[70.6 µM]
COCCOC1CN(C2CCN(C(=O)c3ccc(OC)cc3)CC2)C12CCCCC2 (configuration not stated)	0.7%
Nc1nc2c(c(=O)[nH]1)CCN(C(=O)CC(c1ccccc1)c1ccco1)C2 (configuration not stated)	3.7%
CN(C(=O)Nc1ccc(Cl)cc1)C1CCc2ccccc21 (configuration not stated)	-11.2%[70.6 µM]
COCc1nc(C2CCCN(C(=O)c3ccncc3)C2)no1 (configuration not stated)	0.0%
COCCCNC(=O)C(NC(=O)c1ccc(OC)cc1)C1CCN(C(=O)c2cccc(OC)c2)CC1 (configuration not stated)	-8.2%
COCCNc1cc(-c2ccc(F)cc2)nc2c(C)noc12	-1.7%[70.6 µM]
O=C1Nc2ccccc2OCC12CCN(Cc1cccs1)CC2	0.0%[70.6 µM]
CCCN1C(=O)Cc2cc(C(=O)NCc3ccc(Cl)cc3)ccc21	-6.2%
OCc1ccc(CN2C[C@H](O)C[C@H]2c2nc(-c3ccccc3)no2)o1	3.8%[70.6 µM]
Cn1cc(CC(=O)N2CCCc3ncc(C(=O)NCCOc4ccccc4)cc32)c2ccccc21	3.8%
O=[S+]1([O-])NCC2(CCN(Cc3cccnc3)CC2)Nc2ccccc21	7.8%
O=C(N[C@@H]1COCC[C@@H]1OCC1CC1)c1ccc2c(c1)CCCO2	0.0%
CC1=C[C@@H](CN)[C@H](C(C)C)C[C@H]1Cc1nc2ccc(Cl)cc2[nH]1	-12.2%[70.6 µM]
CCC(C)C1=NS(=O)(=O)c2cc(NC(=O)C(C)C)ccc2N1c1ccccc1 (configuration not stated)	-9.6%
CNC(=O)c1cc[nH]c1C1CCCN(C(=O)C2CC=CCC2)C1 (configuration not stated)	0.2%
O=C(c1ccc(C(F)(F)F)cc1)N1CCC(c2nn(Cc3ccccc3)c(=O)[nH]2)CC1	12.7%
Cc1cnc(C(=O)NC2C[C@H]3CC[C@@H](C2)N3S(=O)(=O)c2ccccc2)cn1 (some centres not stated)	2.5%
COc1cc(NC(=O)[C@H]2CCC[C@H]2NC(=O)c2cnc(C)cn2)cc(OC)c1OC	3.2%
Cc1noc([C@@H]2CN(C(=O)c3ccc4cc[nH]c4c3)C[C@H]2CO)n1	7.6%
CN(c1ccccc1)c1ccc2nnc(-c3cc(C(=O)N4CC(O)C4)ccn3)n2n1	3.6%[70.6 µM]
COC(=O)[C@@H]1Cc2ncn(C)c2CN1S(=O)(=O)c1cccs1	10.2%[70.6 µM]
CN(C)C(=O)C1CN(C(=O)NC2CCCCC2)CC12CCOCC2 (configuration not stated)	-0.9%
O=C1CCN(C(=O)c2ccsc2)CCCCCCN1	1.5%
N#CC1CCN(C(=O)c2nc(-c3cc(Cl)cc(Cl)c3)c3ccccn23)CC1	-4.1%
COCC1CN(Cc2c(C)n[nH]c2C)CC12CCNCC2 (configuration not stated)	0.9%
O=C(CCCc1ccccc1)N1CCC2(CC1)CN(c1ccncn1)CC2CO (configuration not stated)	2.1%
CC1=C[C@@H](CN2CCN(c3ccccn3)CC2)[C@H](C(C)C)C[C@H]1Cc1nnc(C)o1	7.4%[70.6 µM]
CN(Cc1ccccc1)Cc1cn(C[C@H]2O[C@@H](CC(=O)N(C)Cc3ccccc3)[C@H](O)[C@@H]2O)nn1	3.1%
O=C1NCN(Cc2ccc(Cl)cc2)C12CCN(Cc1cccc3ccccc13)CC2	11.1%
COc1cccc(CC(=O)N2[C@@H]3CC[C@H]2CC(NC(=O)c2ccncc2)C3)c1 (some centres not stated)	-3.7%
COc1ccc(CN2CC3(CCN(C(=O)c4ccc(OC)cc4OC)CC3)C2=O)cc1	-19.7%

A different layout for part of the listing above:
NPR1 antag	smiles
1.5%	O=C1CCN(C(=O)c2ccsc2)CCCCCCN1
2.1%	O=C(CCCc1ccccc1)N1CCC2(CC1)CN(c1ccncn1)CC2CO (configuration not stated)

Next section:
SMILES	NPR1 antag
CCNC(=O)N1CCc2cc(OC)c(OC)cc2C1CNC(=O)CC(C)C (configuration not stated)	3.1%
CN(Cc1ccccc1)Cc1cc(CC2(NC3CCCCC3)COC2)no1	-0.6%[70.6 µM]
CN1C[C@@H](NS(C)(=O)=O)C[C@H]1c1nc(-c2ccncc2)no1	11.6%[70.6 µM]
CC1=NS(=O)(=O)N(Cc2ccccc2)C=C1C(=O)OCc1nc(-c2ccccc2)no1	0.0%
Cc1ccccc1C(=O)N1C[C@@H](F)C[C@H]1C(=O)N1CCOCC1	4.4%
O=C(C1CC1)N1CCCCC1c1nc(C2CCOCC2)n[nH]1 (configuration not stated)	0.4%
Fc1ccc(-c2noc([C@@H]3CCCN3Cc3ccccc3F)n2)nc1	-0.3%[70.6 µM]
O=C(c1ccc(Cl)cc1)N1CCC(c2n[nH]c(=O)n2-c2ccccc2)CC1	0.3%
CC(=O)N1CCOC(Cc2cccc(C(F)(F)F)c2)C1 (configuration not stated)	-0.5%
Cc1ccc(CN2C(=O)OC(c3cccc(NC(=O)Cc4ccccc4)c3)C2C(=O)NCC(C)C)cc1 (configuration not stated)	-1.6%
Cc1noc(-c2cccc(OC3CN(C(=O)NC(C)C)C3)c2)n1	6.2%
O=C(c1ccccc1OCC1CCCN(Cc2nccs2)C1)N1CCCC1 (configuration not stated)	-2.1%
Cc1ccc(NC(=O)CN2C(=O)NC3(CCCCC3)C2=O)c(Cl)c1	0.0%
COC(=O)c1ccc2c(c1)nc1n2[C@@H](CNCc2ccc(C(F)(F)F)cc2)COC1	-21.3%[70.6 µM]
O=C(O)C1(Oc2ccc3ccccc3c2)CCN(Cc2ccsc2)CC1	-0.9%
O=C1C2CN(Cc3ccncc3Cl)CCC2OCCN1Cc1ccccc1 (configuration not stated)	-2.3%[70.6 µM]
CC(C)c1noc(CCNC(=O)[C@H]2CNC[C@H](C(=O)N3CCOCC3)C2)n1	2.0%
CCc1ccc(S(=O)(=O)N2CCN(C3CCN(CCC(C)C)C3=O)CC2)cc1 (configuration not stated)	-13.5%
Cc1cc(S(=O)(=O)N2CCC(CC(=O)NCc3ccccc3)C2)ccc1F (configuration not stated)	8.3%
CN(CCCNC1CCC2(CCNCC2)CC1)c1ccccc1	0.3%
O=C(c1nc2ccccc2[nH]1)N1CCc2c(n(Cc3cccnc3)n(-c3ccccc3)c2=O)C1	-1.0%
O=C1N2CCCC2CN1C1CCN(Cc2ccc(C(F)(F)F)cc2)CC1 (configuration not stated)	?
COc1ccc(Cl)cc1S(=O)(=O)N1CCCC(Cn2cnc3cccnc32)C1 (configuration not stated)	-14.2%
C[C@@H](NC(=O)Cc1ccccc1)c1onc(-c2ccc(Cl)cc2)c1C(=O)O	2.4%[70.6 µM]
COc1ccc(S(=O)(=O)N2CCc3c(C(=O)NCCc4cccs4)cccc32)cc1	?
Cc1nccc(N2CCC(COc3ccc4c(cnn4CC[S+](C)(=O)[O-])c3)CC2)n1	?
CC(=O)Nc1ccc(NC(=O)CN2C(=O)NC3(CCC(C)CC3)C2=O)cc1 (configuration not stated)	-0.1%
CC(CCc1ccccc1)NC(=O)Cn1ccn2nc3c(c2c1=O)CCCC3 (configuration not stated)	4.9%
N#Cc1cccc(C(=O)NC2CCN(c3cc(-c4ccc(Cl)cc4)[nH]n3)C2)c1 (configuration not stated)	-26.8%
Cc1cccc(-c2ccc3c(c2)C(=O)N2CC[C@H](NC(=O)c4cnccn4)C[C@H]2C(=O)N3)c1C	-14.4%
Cc1noc(C)c1[S+](=O)([O-])N1CCn2c(nn(-c3ccc(C(F)(F)F)cc3)c2=O)C1	-17.3%
Cc1cc(C(=O)N2C[C@@H](CO)[C@H](N(C)C)C2)no1	4.5%
